# CBX7 inh – CBX7 chromodomain binding inhibitors, primary screen, biochemical, AlphaScreen; Chromobox protein homolog 7 (Homo sapiens), O95931; AlphaScreen His6-CBX7 / biotin-H3K27me3 peptide binding; stronger effect = lower value; normalised signal (fraction of DMSO) (no concentration beside the values); 1.1% of 66,000 active; in the data active = normalised signal below about 0.5;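 also: 100 nL library stock added to about 20 µL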
# Target sequence (O95931 whole entry, looked up): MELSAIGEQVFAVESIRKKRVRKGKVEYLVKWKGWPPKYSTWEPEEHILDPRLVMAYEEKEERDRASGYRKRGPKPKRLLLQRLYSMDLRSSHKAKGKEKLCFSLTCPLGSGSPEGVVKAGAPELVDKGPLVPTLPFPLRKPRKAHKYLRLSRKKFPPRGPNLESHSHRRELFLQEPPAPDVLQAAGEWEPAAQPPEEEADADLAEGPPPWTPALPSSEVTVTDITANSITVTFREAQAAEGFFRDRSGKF
# CBX7 inh z-score – second read-out of CBX7 inh, no call of its own (marks repeat the call); z-score; measured here: z-score of CBX7 signal; some inactives read as strong as hits; reference of the scale not given here;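 same signal on another scale; lower means less binding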
# An asterisk follows results filed as active; & = joins results of further samples. These rows are one share of the data (hit frequency here may not be typical).
SMILES,CBX7 inh,CBX7 inh z-score
COc1ccc(C(=O)NC(C)C(c2cccs2)N2CCOCC2)cc1OC (configuration not stated),1,0.016
O=C(NCCc1ccccc1)C1CCC(CNS(=O)(=O)c2cccc3cccnc23)CC1 (configuration not stated),1,0.9
COc1ccc(-n2c(Cc3cc(=O)[nH]c(=O)[nH]3)nnc2SCC(=O)Nc2nnc(C)s2)cc1,0.78,-3.3
CCC(=O)Nc1nc(C)cc2c1c(=O)oc1ccccc12,1,0.42
COc1cc(OC)c(Nc2nc(-c3cccc(C)c3)nc3ccccc23)cc1Cl,1.8,11
Cc1cc(N2CCC(C)CC2)nc(-c2ccccc2O)n1,1.4,8.3
O=C1C2C3c4ccccc4C(CO)(c4ccccc43)C2C(=O)N1c1ccccc1Cl (configuration not stated),1,0.017
CC1(C)CC(=O)c2sc(NC(=O)c3cccc(F)c3)nc2C1,1,0.41
COc1cc2c(C(=O)NCCc3ccc(Cl)cc3)cn(C)c(=O)c2cc1OC,1.1,1.8
CC(=O)Nc1nonc1-c1nc2ccccc2n1Cc1ccc(C(C)(C)C)cc1,0.99&0.98,-0.31&-0.92
CCN(CCCNC(=O)c1cc(-c2cccnc2)nc2ccccc12)c1ccccc1,0.98,-0.18
CCC(CC)C(=O)Nc1c(-c2ccc(OC)cc2)nc2cc(C)ccn12,0.98,-0.53
Cc1nc2c(C(=O)NC3CCCCC3)cnn2c(C)c1Cc1ccc(F)cc1,1,0.71
Cc1ccc(C(=O)N2CC(=O)Nc3ccc(F)cc3C2c2ccc(F)cc2)cc1 (configuration not stated),1,0.16
CCS(=O)(=O)N1CCCC(C(=O)NC(C)c2ccccc2)C1 (configuration not stated),1,0.24
CCN(CC)C(=O)c1cc2c(n(-c3ccc(OC)cc3)c1=O)CC(C)(C)CC2=O,1,0.26
COc1ccc2cc(CCNC(=O)c3ccccc3F)c(=O)[nH]c2c1,1.1,2.3
Cc1ccc(NC(=O)CSc2nc3ccccc3nc2Cc2ccc(F)cc2)cc1,1,0.4
COc1ccc(-c2nnc(SCC(=O)c3ccc4ccccc4c3)o2)cc1,1,0.95
CC(=O)Nc1ccc2oc(-c3ccccc3Cl)nc2c1,0.93,-1.2
CC(NC(=O)Cn1nc(-c2ccccc2)c2ccccc2c1=O)c1ccccc1 (configuration not stated),0.85,-1.7
COc1ccc(NS(=O)(=O)c2cnc[nH]2)cc1Cl,1.1,1.7
Cc1cccc(NC(=O)CSc2nc(-c3ccccc3)cn2-c2ccccc2)c1C,0.78,-7.3
COCCCNC(=O)c1ccc2c(c1)N(Cc1c(F)cccc1Cl)C(=O)c1ccccc1S2,0.72,-1.2
NC(=O)COc1ccc(-c2noc(COc3cccc(Cl)c3)n2)cc1,0.98,-0.29
# (listing goes on)
SMILES,CBX7 inh,CBX7 inh z-score
COc1cc(-n2nc(-c3ccccc3)cc2-c2ccccc2)ncn1,1.2,2.5
c1ccc(-c2nc3ncccn3c2NC2CCCCC2)cc1,1.1,1.4
Cc1ccc(CCN2CC(C(=O)NCCCN3CCCCCC3)CC2=O)cc1 (configuration not stated),1.2,4.5
CCCN(CCC)C(=O)Cn1ncc2c1-c1ccccc1OC2,1.1,0.45
CC(=O)NCCc1nc2ccccc2n1Cc1c(F)cccc1Cl,0.9,-1.5
CCOc1ccc(NC(=O)CCc2nc(-c3ccc(C)cc3)no2)cc1,0.99,-0.38
CCc1ccc(NC(=O)CSc2nc3nc(C)c(Cc4ccccc4)c(C)n3n2)cc1,0.76,-0.96
COc1ccc(CCC(=O)Nc2ccc(-c3noc(-c4ccccc4Br)n3)cc2)cc1,1,0.13
COc1ccc(CNC(=O)c2noc3c2CCCC3)cc1,1.1,0.34
CC(C)CC(=O)N1CC(=O)Nc2ccc(F)cc2C1c1ccc(F)cc1 (configuration not stated),1,0.17
O=C(c1cc(-c2ccc(O)cc2)on1)N1CCN(C(c2ccccc2)c2ccccc2)CC1,0.91,-3.7
NC(=O)Cc1ccc2sc(-c3ccccc3)nc2c1,0.93,-1.7
COc1ccc(-n2nc3c(c2NC(=O)c2ccc(OC)c(OC)c2)CS(=O)(=O)C3)cc1,0.97,-0.35
CCOc1ccc2nc(N3CCC(C(=O)NCCCc4ccccc4)CC3)sc2c1,0.95,-0.24
COC(=O)CNC(=O)c1sc2ncn(CC(=O)Nc3ccc(C)c(Cl)c3)c(=O)c2c1C,1.3,1
Cc1cc(C)c2oc(-c3ccc(C)c(NC(=O)CC(C)C)c3)nc2c1,0.98,-0.51
COc1ccc(C2CC(=O)N(CC(=O)NC3CCCCC3)c3ccccc3S2)cc1OC (configuration not stated),0.97,-0.41
Cc1ccc(N2C(=O)C3C4C=CC(C5CC45)C3C2=O)cc1C (configuration not stated),1.1,0.59
CC(C(=O)NCCCc1ccccc1)N1C(=O)CC(C)(C)Sc2ccccc21 (configuration not stated),1,0.83
Cc1cccc(CCNC(=O)CC2Sc3ccccc3NC2=O)c1 (configuration not stated),0.98,-0.39
Cc1nc2c(C(=O)NCc3c(F)cc(F)cc3F)cnn2c(C)c1Cc1ccccc1,1.1,1.1
CCC1Sc2ccccc2N(CC(=O)NCc2ccc3c(c2)OCO3)C1=O (configuration not stated),0.97,-1.1
O=C(NCCc1nc2ccccc2[nH]1)c1cccc(Br)c1,0.98,-0.57
Cc1ccc(-c2nc3ncccc3o2)cc1NC(=O)c1cccnc1,1.1,0.93
COc1ccc(CCNC(=O)c2ccc3c(c2)N(Cc2ccccc2F)C(=O)CS3)cc1OC,0.99,-0.57

# Reprinted from the listing for reference:
SMILES,CBX7 inh,CBX7 inh z-score
COc1cc(-n2nc(-c3ccccc3)cc2-c2ccccc2)ncn1,1.2,2.5
c1ccc(-c2nc3ncccn3c2NC2CCCCC2)cc1,1.1,1.4
Cc1ccc(CCN2CC(C(=O)NCCCN3CCCCCC3)CC2=O)cc1 (configuration not stated),1.2,4.5
CCCN(CCC)C(=O)Cn1ncc2c1-c1ccccc1OC2,1.1,0.45
CC(=O)NCCc1nc2ccccc2n1Cc1c(F)cccc1Cl,0.9,-1.5
CCOc1ccc(NC(=O)CCc2nc(-c3ccc(C)cc3)no2)cc1,0.99,-0.38
CCc1ccc(NC(=O)CSc2nc3nc(C)c(Cc4ccccc4)c(C)n3n2)cc1,0.76,-0.96
COc1ccc(CCC(=O)Nc2ccc(-c3noc(-c4ccccc4Br)n3)cc2)cc1,1,0.13
COc1ccc(CNC(=O)c2noc3c2CCCC3)cc1,1.1,0.34
CC(C)CC(=O)N1CC(=O)Nc2ccc(F)cc2C1c1ccc(F)cc1 (configuration not stated),1,0.17
O=C(c1cc(-c2ccc(O)cc2)on1)N1CCN(C(c2ccccc2)c2ccccc2)CC1,0.91,-3.7
NC(=O)Cc1ccc2sc(-c3ccccc3)nc2c1,0.93,-1.7
COc1ccc(-n2nc3c(c2NC(=O)c2ccc(OC)c(OC)c2)CS(=O)(=O)C3)cc1,0.97,-0.35
CCOc1ccc2nc(N3CCC(C(=O)NCCCc4ccccc4)CC3)sc2c1,0.95,-0.24
COC(=O)CNC(=O)c1sc2ncn(CC(=O)Nc3ccc(C)c(Cl)c3)c(=O)c2c1C,1.3,1

# The results go on.
SMILES,CBX7 inh,CBX7 inh z-score
COc1ccc(NC(=O)Cn2nc(Cc3cccnc3)c3ccccc3c2=O)cc1Cl,0.98,-0.38
COc1cccc(-c2nn(C)c3sc(C(=O)N4CC(C)CC(C)C4)cc23)c1 (configuration not stated),0.94,-1.8
CNC(=O)N1CCc2nc3ccc(Cl)cc3c(-c3ccccc3)c2C1,0.8,-0.56
COc1cc(C)nc(N(CCC(C)C)S(=O)(=O)c2ccc(C)cc2)n1,1.1,2.9
COc1ccc(OC)c(NC(=O)[C@H](CSCc2ccccc2)N2Cc3ccccc3C2=O)c1,0.72,-6.3
Cc1ccc(Nc2nc(-c3sc(N)nc3C)cs2)cc1,0.38*,-12*
CCOc1ccc(NC(=O)c2cnc(N3CCN(CC)CC3)c3ccccc23)cc1,1.4,0.78
O=C(NCCc1ccccc1)C1CCN(c2ccc(N3CCOCC3)nn2)CC1,0.99,-0.11
Cc1cc(C)c(-n2nnnc2SCC(=O)Nc2nccs2)c(C)c1,1.1,0.76
CCOc1ccc(Cn2nnc(-c3ccc(S(C)(=O)=O)cc3)n2)cc1OCC,0.98,-0.5
CCC1=Nc2cc(C(=O)NCCc3ccccc3)ccc2Sc2ccc(Cl)cc21,1,0.41
COC(=O)c1cc2sc(Cl)cc2n1CC(=O)N(C)c1ccccc1,1,1.2
CN(Cc1ccccc1)S(=O)(=O)c1ccc(C(=O)Nc2nnc(C3CC3)o2)cc1,0.5,-11
O=C(Cn1nc(-c2ccccc2)ccc1=O)N1CCCCC1,1,-0.015
Cc1cc(C(F)(F)F)nc(NCc2cccs2)n1,0.97,-0.44
Cc1cccc(C)c1OCC(O)CNS(=O)(=O)c1ccccc1C(=O)N1CCCCC1 (configuration not stated),0.93,-0.79
Cc1oc(-c2ccc(Cl)cc2)nc1C(=O)NC1CCCCC1,1,0.078
O=C(O)CCc1nn2c(-c3ccccc3)c(-c3ccccc3)nc2[nH]c1=O,1.1,1.8
O=C(NC1CCCC1)c1ccc2c(c1)NC(=O)C1CCCN21 (configuration not stated),0.85,-0.58
Cc1ccc(-n2ncc3c(=O)n(-c4ccc(C)c(C)c4)c(C)nc32)cc1,0.94,-0.93
COc1ccc(NC(=O)Cc2cn(C)c3ccccc23)c(OC)c1,0.86,-2
CCCn1c(C(C)NC(=O)c2ccccc2)nc2ccccc21 (configuration not stated),1.2,2.3
CCN(CC)C(=O)C1CCC(CNS(=O)(=O)c2cccc3cccnc23)CC1 (configuration not stated),1,0.57
CCNC(=O)CC1C(=O)N(c2ccccc2)C(=O)N1Cc1ccc(F)cc1 (configuration not stated),0.99,-0.55
CCOc1ccc(NC(=O)CSc2nc3ccccc3nc2Cc2ccc(F)cc2)cc1,0.97,-0.15
# Further results follow:
SMILES,CBX7 inh,CBX7 inh z-score
Cc1nc2c(C(=O)NCc3ccccc3)cnn2c(C)c1Cc1cccc(Cl)c1,1.1,2.4
Cc1cccc(-c2noc(/C=C/c3ccccc3)n2)c1,1.6,0.68
O=C(c1cc(-c2cccc(Cl)c2)on1)N1CCCC1,1,0.13
CCOC(=O)N1CCN(C(=O)c2ccc3nc(N4CCC(C)CC4)sc3c2)CC1,1.1,0.77
Cc1ccc(C(=O)c2oc3ccccc3c2NC(=O)COc2ccc(Br)cc2)cc1,1.1,0.55
COc1ccc(CCNC(=O)C2CC(=O)Nc3ccccc32)cc1OC (configuration not stated),1,0.91
O=C(NCCc1ccccc1)c1ccc2c(c1)N(Cc1ccccc1)C(=O)c1ccccc1S2(=O)=O,0.99,-0.38
COc1cc(OC)c(NC(=O)Nc2cc3sccc3n2C)cc1Cl,0.92,-3.1
COc1cccc(CN2CCN(Cc3ccccc3Br)CC2)c1OC,0.93,-1.3
CCCOc1ccc(C(=O)Nc2ccc(Cl)c(-c3nc4ccccc4o3)c2)cc1,1.1,4.7
COc1cccc(NC(=O)Cn2cc(S(=O)(=O)c3ccccc3)c(=O)c3cc(F)ccc32)c1,0.95,-1.8
O=C(O)c1ccccc1-c1ccccc1C(=O)Nc1cccc(-c2nc3ccccc3[nH]2)c1,1,1.4
O=C(Cn1nc(Cc2cccnc2)c2ccccc2c1=O)N1CCC(Cc2ccccc2)CC1,0.83,-1.8
O=C(NCc1ccccc1Br)c1cnn(-c2ccccc2)c1-n1cccc1,1.1,2.6
Cc1cc(NCc2ccccc2Cl)n2ncnc2n1,1.1,0.58
O=C1CN(C(=O)CCCc2ccccc2)C(c2ccccc2)c2cc(Cl)ccc2N1 (configuration not stated),0.82,-4.6
COc1cccc(-c2nn(C)c3sc(C(=O)NC4CCN(Cc5ccccc5)CC4)cc23)c1,0.83,-4.9
CC(Oc1ccccc1F)C(=O)Nc1nc(-c2ccc(S(=O)(=O)N3CCOCC3)cc2)cs1 (configuration not stated),0.93,-0.73
COCCNC(=O)c1cn(C2CCCCC2)c(=O)c2c1c1ccccc1n2C,0.97,-0.62
COc1nc(Nc2ncc(O)[nH]2)nc2ccc(C)cc12,1,0.037
COc1ccc(NC(=O)c2ccc3c(c2)NC(=O)c2ccccc2S3)cc1Cl,1,0.79
COc1cc(OC)c(NC(=O)c2cc3c(s2)-c2ccccc2OC3)cc1Cl,1,0.83
Fc1ccc(Nc2nc3nonc3nc2N2CCCC2)cc1,0.98,-1.3
CCCN(CCC)c1cc(C)nc2c(-c3ccccc3OC)c(C)nn12,0.89,-1.5
CCOc1ccc(C(=O)Nc2ccc3oc(-c4ccc(Br)cc4)nc3c2)cc1,1.1,0.28
# Other compounds follow:
SMILES,CBX7 inh,CBX7 inh z-score
COc1ccc(Cl)cc1NC(=O)CN(C)S(=O)(=O)c1ccc2nc(C)sc2c1,1.1,0.62
O=C(NCCCN1CCOCC1)C(c1ccccc1)c1ccccc1,1.1,0.62
CCOc1ccc(-n2ccnc2SCC(=O)Nc2ccc(Cl)c(Cl)c2)cc1,0.97,-0.037
Cc1ccc(S(=O)(=O)c2nc(-c3ccc(F)cc3)oc2SCC(=O)NCC2CCCO2)cc1 (configuration not stated),1,1
COc1ccc(-c2cc(C(F)(F)F)nc(-n3ccnc3C)n2)cc1OC,1.1,2.6
COc1cc2ccccc2cc1C(=O)Nc1nc(-c2ccc(Cl)cc2)cs1,1.1,2.2
COc1ccc(S(=O)(=O)N2CC=C(C(=O)Nc3ccc(C)cc3)CC2)cc1,1,1.5
CN1CC(=O)Nc2cc(C(=O)NCCCN3CCc4ccccc4C3)ccc21,0.96,-0.036
CCCCSCCCNC(=O)C1CCCN(Cc2nc(-c3ccc(CC)cc3)oc2C)C1 (configuration not stated),0.94,-1.5
O=C(NC1CC1)C(=O)c1c(-c2ccccc2)[nH]c2ccccc12,1,0.62
CCCCCCCCc1c(O)nc(SCCN(CC)CC)[nH]c1=O,1,1.4
Cc1ccc(Cl)cc1Nc1nnc(C)c(=O)[nH]1,1.1,2.9
Cc1cccc2c1-c1sc(C(=O)N3CCCC3)cc1CO2,1.1,2.8
